Calb biofilm kill: mixtures killing C. albicans biofilm; C. albicans biofilm persisters + clotrimazole, fluorescence viability; primary screen in compound mixtures of four per well; AID 1242; actives 0.02% (n = 120,000); inhibition, % at 7.6 µM;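 active means inhibition above 30.3% in the primary screen of four-compound pools, then above 30% when the compound was retested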;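 further: compounds exposed to preformed 24 h biofilms for 48 h; the number belongs to the whole pool; some results filed as inactive read as strong as hits; inactives centre near 12; 0% = biofilm with clotrimazole alone and 100% = kill control; retested singly at about 60 µM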
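Incubation: 24 h biofilm formation, then 48 h compound exposure, 37 °C | Material: C. albicans biofilms | Buffer or medium: RPMI/MOPS medium, pH 7.0 | Measured by: 2-h Alamar Blue fluorescence, 535/590 nm excitation/emission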
Numbers without * were called inactive; & = joins results of further samples. An excerpt; rates above refer to the full screens.

SMILES | Calb biofilm kill
CC1Cc2ccccc2N1S(=O)(=O)c1cccc(C(=O)N2CCN(c3ncccn3)CC2)c1 (configuration not stated) | 11
CCC(C(=O)OCC(=O)Nc1cc(OC)ccc1OC)c1ccccc1 (configuration not stated) | 8
Cc1c(C#N)c(O)n(CCO)c(=O)c1N=Nc1ccc(S(N)(=O)=O)cc1 | 10
C[n+]1ccc(/C=C/c2cccs2)cc1 | 20
CCc1nc(SCC(=O)c2cccc([N+](=O)[O-])c2)n[nH]1 | 10
CCOC(=O)CNC(=S)N(Cc1cccs1)C1CCCC1 | 14
CCn1c(C)nc2cc(C(=O)N=Nc3c(O)[nH]c4ccccc34)ccc21 | 8
COCc1cccc(NC(=O)Cc2cccc3ccccc23)c1 | 24
O=C(NCc1ccc2c(c1)OCO2)C1CCN(c2nccc(C(F)(F)F)n2)CC1 | 17
Cc1ccc(Cn2cnc3c(cnn3C(C)(C)C)c2=O)cc1 | -2
Cc1ccc(C)n1-c1ccc(C(=O)NN=C2CCCC2)cc1 | -2
CCOc1ccc(CCNC(=O)C2CCN(S(=O)(=O)N3CCCCC3)CC2)cc1OCC | 0
CCCOc1ccc(C(=O)Nc2c[nH]c(=O)[nH]c2=O)cc1 | 13
COc1ccc(/C=C2/SC(=O)N(CCCCCC(=O)Nc3ccccc3C(=O)O)C2=S)cc1 | 9
O=C(O)c1ccc(NC(=O)C2(c3ccccc3)CCCC2)cc1 | 24
O=[N+]([O-])c1ccc(N2CCN(S(=O)(=O)c3ccccc3[N+](=O)[O-])CC2)cc1NCc1cccnc1 | 6
CC(=O)Oc1cccc2c1C(=O)c1c(OC(C)=O)cc(C(=O)O)cc1C2=O | 11
CCOC(=O)Cc1sc(N)nc1C | -11
N#Cc1ccc(C(=O)Nc2nnc(-c3cccs3)o2)cc1 | 18
N#C/C(=C\Nc1ccccc1SC(F)(F)F)c1nc(-c2ccc(F)cc2)cs1 | 2
CN1CCc2cc3c(c4c2[C@H]1[C@H](O)c1ccccc1-4)OCO3 | 6
COc1ccc(-c2cc(C(=O)N3CCN(c4ccccc4OC)CC3)no2)cc1OC | 2
Cc1cc(C(=O)Cn2nc(C(=O)O)c3ccccc3c2=O)c(C)n1CC(F)(F)F | 13
O=C(CN1CC(c2ccccc2)CC1=O)N/N=C/c1cc(Br)ccc1O (configuration not stated) | 12
Cc1ccc(CNC(=O)/C=C/c2ccc(Br)o2)cc1 | 10

(list continues)
SMILES | Calb biofilm kill
CNC(=S)NCc1ccc(OC)cc1 | 3
O=[N+]([O-])c1cc(S(=O)(=O)N2CCCCC2)ccc1NCc1cccc(Cl)c1 | 14
O=C(NC(Cc1ccccc1)C(=O)NC(Cc1ccccc1)C(=O)O)c1ccccc1 (configuration not stated) | 17
CCN1CCOC(CC(=O)Nc2cccc([N+](=O)[O-])c2)C1=O (configuration not stated) | 29
CC1(C)C(c2ccccc2)=NC(c2ccc(Br)cc2)N1O (configuration not stated) | 6
CCOc1ccc(N2C(=O)Nc3ccccc3C2(O)C(=O)NCc2ccccc2)cc1 (configuration not stated) | 12
COc1cc(C(=O)N/N=C(\C)Cc2ccccc2)cc(OC)c1OC | 15
Cc1cccc(-c2ncc(CN3CCN(CCC(C)C)C(CCO)C3)cn2)c1 (configuration not stated) | 1
N=c1oc2cc(O)ccc2cc1C(=O)Nc1nc2ccccc2s1 | 19
CN(C)[C@@H]1CCC[C@H]1OC(=O)C(c1ccccc1)c1ccccc1 | 8
CC(C)(C)C(=O)Nc1nnc(CC(=O)NCc2ccccc2)s1 | 19
Cc1cc(C)n2nc(C(=O)Nc3ccn(Cc4ccccc4C)n3)cc2n1 | 24
CC(Sc1nnc(COc2ccc([N+](=O)[O-])cc2)n1-c1ccccc1)C(=O)O (configuration not stated) | 19
O=C(N/N=C/c1sc2ccccc2c1O)c1cccc2ccccc12 | -6
CCn1c(C)nc2cc(C(=O)NNC(=S)Nc3ccccc3)ccc21 | 15
CCn1c(C)nc2cc(C(=O)NNC(=S)Nc3ccccc3OC)ccc21 | 21
CNC(=O)COC(=O)CNC(=O)c1cc(Cl)cc([N+](=O)[O-])c1 | 19
CCOCCCNS(=O)(=O)c1ccc(NC(=O)Cc2c(F)cccc2Cl)cc1 | 8
COC(=O)c1ccc(Cl)cc1NC(=O)/C=C/c1ccc(C)o1 | 7
O=C1CC(N(Cc2cccs2)C(=O)Nc2ccccc2)C(=O)N1c1ccc(Cl)cc1 (configuration not stated) | 1
CC/C(=N/O)c1cnnc(SC)n1 | 13
CC(NS(=O)(=O)c1ccc(F)cc1)C(c1cccs1)N1CCOCC1 (configuration not stated) | 17
O=C(/C=C/c1ccc(F)cc1)NCc1ccco1 | 11
COc1ccc([N+](=O)[O-])cc1NC(=O)CS(=O)(=O)c1ccc(C)cc1 | 13
CC(C)CC(=O)NC1(C(F)(F)F)NC(=O)N(c2ccccc2)C1=O (configuration not stated) | 11

(further entries)
SMILES | Calb biofilm kill
COc1ccc([N+](=O)[O-])cc1NC(=O)Cn1ccc(C(F)(F)F)n1 | 33
Cc1ccc(CCNC(=O)C2CC(c3ccccc3C(F)(F)F)=NO2)cc1 (configuration not stated) | 13
COc1cccc(/C=C/C(=O)OCC(=O)Nc2ccc(S(=O)(=O)N3CCCC3)cc2)c1 | 14
O=C(/C=C/c1cccs1)Nc1ccc(S(=O)(=O)Nc2ncccn2)cc1 | 21
CCNC(=O)CC1C(=O)N(c2ccc(OC)cc2)C(=S)N1CCc1ccncc1 (configuration not stated) | 17
CCC(C)(C)NC(=O)CN(C(=O)C(=O)Nc1ccc2c(c1)OCCO2)C(C)(C)CC | -1
COCCn1c(-c2ccc(Cl)cc2)nc2oc3cc(OC)ccc3c(=O)c2c1=O | 11
COc1ccc(C2c3ccc(O)cc3Oc3ncn(CCN4CCOCC4)c(=N)c32)cc1OC (configuration not stated) | 15
O=C(C1COc2ccccc2O1)N1CCc2ccccc2C1 (configuration not stated) | 16
CCC(CC)C(=O)Nc1cc(C(=O)OC)ccc1C(=O)OC | 10
O=C(N/N=C/c1cc([N+](=O)[O-])ccc1O)/C(=C\c1cccs1)NC(=O)c1ccccc1 | 5
CCCCn1c(CCC(=O)O)nc2cc(S(=O)(=O)N(CC)CC)ccc21 | 14
O=C(Nc1cccc(S(=O)(=O)NC2=NCCC2)c1)c1cc(-c2ccccn2)nc2ccccc12 | 14
COc1ccccc1N1CCN(C(=O)CCCN2C(=O)c3cccc4cccc(c34)C2=O)CC1 | 8
COc1cc(COCC(O)CN2CCN(Cc3ccc4c(c3)OCO4)CC2)cc(OC)c1OC (configuration not stated) | 26
CNc1ccccc1NC(=O)CCn1c(=S)oc2ccccc21 | 27
O=C(O)c1cccc(-n2c(O)c(C=C3N=c4ccccc4=N3)sc2=S)c1 | 19
N/C(=N\OC(=O)c1ccc2ccccc2c1)c1ccccn1 | 2
CCOC(=O)C1CCCN(c2nc3c(C)cccn3c(=O)c2/C=C(\C#N)C(=O)NCc2ccco2)C1 (configuration not stated) | 12
CCn1c(Cc2cccc3ccccc23)nnc1SCC(=O)Nc1nccs1 | 5
COc1ccccc1NC(=S)NC12CN3CN(CN(C3)C1)C2 | -11
O=C(/C=C/c1ccc2c(c1)OCO2)Nc1nncs1 | 19
Cc1cccc(C)c1-n1nnnc1-c1cnccc1C(F)(F)F | 16
CCO[C@@H]1OC(C(N)=O)=C[C@H](c2ccc(C(F)(F)F)cc2)[C@H]1CCCO | 10
COCC(C)N=C1NN=C(c2cccs2)C(CC(=O)O)S1 (configuration not stated) | 2

Further entries.
SMILES | Calb biofilm kill
CCc1ccc(N2C(=O)CC(N3CCN(c4ccccn4)CC3)C2=O)cc1 (configuration not stated) | 17
COc1ccc(-n2c(-c3cc(-c4ccccc4)sc3N)n[nH]c2=S)cc1 | 21
Oc1c(C(Nc2ccccn2)c2cccnc2)cc(Cl)c2cccnc12 (configuration not stated) | 19
CCCCCCC(C)OC(=O)c1ccccc1C(=O)O (configuration not stated) | 8
COC(=O)c1cc(C(=O)OC)n(Cc2ccc(F)cc2)c1C | 9
Cc1ccccc1OCC(O)Cn1c(Br)nc2c1c(=O)[nH]c(=O)n2C (configuration not stated) | 9
COc1ccccc1NC(=O)Cn1cnc2c(nnn2-c2ccc(C)cc2)c1=O | 14
Cc1c(CC=C(Cl)Cl)c(=O)[nH]c2c(C)cccc12 | 8
Cc1cc2oc(C(=O)NCc3ccc(S(N)(=O)=O)cc3)c(C)c2cc1C | 13
COc1cnc(SC)nc1Nc1ccc(C#N)cc1 | 17
CCCN(CCC)C(=O)Cc1ccc(F)cc1 | 10
NS(=O)(=O)c1cc2c(cc1C(F)(F)F)NCNS2(=O)=O | 15
O=C(CCCc1c[nH]c2ccccc12)Nc1ccc2ccccc2c1 | 9
CCCCCCCC1CC(=O)C=C(C)C1C(=O)OCC (configuration not stated) | 18
CCCn1c(N)c(C(=O)CSc2nnc(-c3cccnc3)n2-c2ccc(C)cc2C)c(=O)[nH]c1=O | 4
CCCC(=O)NC(NC(=S)Nc1ccc(N=Nc2ccccc2)cc1)C(Cl)(Cl)Cl (configuration not stated) | 15
CCOc1ccc(/C=C/C(=O)NCc2ccccc2)cc1 | 28
CCOC(=O)c1[nH]cnc1C(=O)Nc1ccc(C)cc1 | 23
COc1ccc(C)cc1NC(=O)C(OC(=O)c1ccc([N+](=O)[O-])o1)c1ccccc1 (configuration not stated) | 16
CCOc1cccc(N(C(=O)C2COc3ccccc3O2)C(C(=O)NC2CCCCC2)c2ccc(O)cc2)c1 (configuration not stated) | 6
CN(C)C(=O)Nc1ccccc1 | 15
O=C(NNc1c2ccccc2nc2ccccc12)c1ccc(O)cc1 | 14
O=C(CSc1ccccc1C(=O)O)NCc1ccc(Cl)cc1 | 17
CCOc1ccc(C(=O)NCCc2ccc3c(c2)OCCO3)cc1 | 12
COc1cc(/C=N/NC(=O)C(=O)NCc2cccnc2)ccc1O | 24

Additional results follow.
SMILES | Calb biofilm kill
CC(=O)N1CCN(CC(=O)Nc2cc([N+](=O)[O-])ccc2Cl)CC1 | 12
CC1CC(C)CN(CC(O)COc2ccc3c(c2)CCC3)C1 (configuration not stated) | 16
O=C(NNC(=O)c1ccccc1[N+](=O)[O-])c1ccco1 | 3
CC(C(=O)Nc1cccc(S(=O)(=O)N2CCOCC2)c1)N1CCN(C/C=C/c2ccccc2)CC1 (configuration not stated) | 10
O=C(N/N=C1\CC(c2ccccc2)Oc2ccccc21)c1cccnc1 (configuration not stated) | 7
Cc1noc(C)c1COc1cccc(C(=O)NCCc2c[nH]c3ccccc23)c1 | 3
C(#CCN1CCCC1)CC(c1ccccc1)c1ccccc1 | -4
COCCCNC(=S)NC1CC2CCC(C1)N2Cc1ccccc1 (configuration not stated) | 25
CCOc1c(Nc2cccc(Cl)c2)c(=O)c1=O | 15
C/C(=N\NC(=O)C(=O)Nc1ccc(C)cc1)c1ccncc1 | 12
Cc1nn(-c2ccccc2)c(N)c1C1(O)C(=O)Nc2ccc([N+](=O)[O-])cc21 (configuration not stated) | 17
Cc1ccc(C(O)(C(=O)NNc2ccc3ccccc3n2)c2ccc(C)cc2)cc1 | 15&6
Cc1ccc(NC2=NC(=S)N(CC#N)C23CCCCC3)cc1 | 10
COC(=O)/C=C/COc1ccccc1[N+](=O)[O-] | 10
O=C(NN1C(=O)C2C3C=CC(C4CC34)C2C1=O)c1ccccc1Cl (configuration not stated) | 4
CCc1ccc(NC(=O)N[C@H](C(=O)O)C(C)CC)cc1 (some centres not stated) | 22
O=c1c(Cc2c(F)cccc2Cl)c(O)ccn1CCCN1CCOCC1 | -3
O=C(NC1CCCCC1)c1cc([N+](=O)[O-])[nH]n1 | 20
COc1cc(/C=N/N=C2/SCC(=O)N2c2ccc(O)cc2)ccc1O | 9
CCCNC(=O)NC(=O)c1cnccc1C(F)(F)F | 12
CCOC(=O)C1CCCN(Cc2nc(CC3CC3)no2)C1 (configuration not stated) | 24

Screens as filed in PubChem BioAssay.
